Screening data (PubChem BioAssay)
H5N1 CPE: MDCK cell protection from H5N1 avian flu. cytopathic effect, luminescence, 72 h; stronger effect = higher value; no value below 0 was filed and about half of the inactive calls have no number; reference of the scale not given here. inhibition, % at 50 µM. hit rate 0.07% among 96,000. AID 740, 2007; in the data active = inhibition above about 25%
Starred values were filed as active, the others as inactive. A portion of the library; count on the stated rates, not on these rows.

Screening Cc1cccc2cc(C(c3nnnn3C(C)(C)C)N3CCN(C(=O)c4ccco4)CC3)c(=O)[nH]c12 (stereo unspecified) returned H5N1 CPE 0.1.
For Cc1onc(-c2ccccc2)c1C(=O)N1CCC2(CC1)OCCO2 the results were H5N1 CPE 0.3.
`CCCOc1ccc([N+](=O)[O-])cc1C1NC(=S)NC(c2ccccc2)=C1C(=O)OCC` (stereo unspecified) gave H5N1 CPE inactive.
Screening CC(C)c1nc2oc3ccccc3c(=O)c2c(=O)n1-c1ccccc1 returned H5N1 CPE 1.9.
For CCC(Sc1nc(-c2ccccc2)c(C#N)c(=O)[nH]1)C(=O)Nc1cc(C)on1 (stereo unspecified) the results were H5N1 CPE inactive.
`CCOC(=O)C1C(=O)N(C)C2(C)CC1c1ccccc1O2` (stereo unspecified) gave H5N1 CPE inactive.
For CC(C)COC(=O)NCC12C=CC(O1)C1C(=O)N(c3ccc(Cl)cc3)C(=O)C12 (stereo unspecified) the results were H5N1 CPE 1.1.
`O=C(Nc1ccc2ccccc2c1)N1CCN(c2ncccc2C(F)(F)F)CC1` gave H5N1 CPE inactive.
Screening NC(=O)c1nn(-c2cccc(Cl)c2)c(=O)cc1O returned H5N1 CPE inactive.
CC(Oc1ccc(Cl)cc1Cl)C(=O)/C=C/N(C)C (stereo unspecified) was read as H5N1 CPE inactive.
`CCCCOc1cccc(NC(=O)CSc2nccn2C)c1` gave H5N1 CPE inactive.
`COc1cccc(-n2c(CNC(=O)OC(C)(C)C)n[nH]c2=S)c1` gave H5N1 CPE 1.2.
For CC1(C)C(c2ccccc2)=NC(c2ccccc2)N1O (stereo unspecified) the results were H5N1 CPE 2.4.
Screening CN(C)c1ccc(/C=C/c2cc[n+](C)cc2)cc1 returned H5N1 CPE 0.4.
O=C(OCc1cc2ccccc2[nH]c1=O)C1CCCO1 (stereo unspecified) was read as H5N1 CPE inactive.

Of the compounds above, 4 contain four or more nitrogen atoms:
Screening Cc1cccc2cc(C(c3nnnn3C(C)(C)C)N3CCN(C(=O)c4ccco4)CC3)c(=O)[nH]c12 (stereo unspecified) returned H5N1 CPE 0.1.
For CCC(Sc1nc(-c2ccccc2)c(C#N)c(=O)[nH]1)C(=O)Nc1cc(C)on1 (stereo unspecified) the results were H5N1 CPE inactive.
`O=C(Nc1ccc2ccccc2c1)N1CCN(c2ncccc2C(F)(F)F)CC1` gave H5N1 CPE inactive.
`COc1cccc(-n2c(CNC(=O)OC(C)(C)C)n[nH]c2=S)c1` gave H5N1 CPE 1.2.

By substructure, the compounds so far with a Cl atom.
For CC(C)COC(=O)NCC12C=CC(O1)C1C(=O)N(c3ccc(Cl)cc3)C(=O)C12 (stereo unspecified) the results were H5N1 CPE 1.1.
Screening NC(=O)c1nn(-c2cccc(Cl)c2)c(=O)cc1O returned H5N1 CPE inactive.
CC(Oc1ccc(Cl)cc1Cl)C(=O)/C=C/N(C)C (stereo unspecified) was read as H5N1 CPE inactive.

Other entries follow.
`Cc1ccc(-c2nn(-c3ccccc3)cc2CN(Cc2ccccc2)C(=O)c2ccco2)o1` gave H5N1 CPE 0.1.
Screening CNc1oc(C)nc1S(=O)(=O)c1ccccc1 returned H5N1 CPE 0.4.
COc1cc(-c2nnc3sc(Cc4ccccc4)nn23)cc(OC)c1OC was read as H5N1 CPE 2.1.
`COc1ccc(NC(=O)C(NC(C)=O)C(=O)NCc2ccc(F)cc2)cc1` (stereo unspecified) gave H5N1 CPE inactive.
For N#C/C(=C\c1ccc(-c2ccccc2)o1)C(=O)Nn1cnnc1 the results were H5N1 CPE inactive.
Screening Cc1nc2c(C)cccn2c1/C(O)=C1\C(=O)C(=O)N(CCN2CCOCC2)C1c1cccs1 (stereo unspecified) returned H5N1 CPE inactive.
`CC(C)N=C(NC#N)SCc1ccccc1F` gave H5N1 CPE 0.7.
For CC(=O)CSc1nc(C(F)(F)F)cc(=O)n1-c1ccccc1 the results were H5N1 CPE inactive.
Screening O=C(c1cc(-c2cccc(O)c2)on1)N1CCCCC1 returned H5N1 CPE 1.8.
Screening CCc1ccc(NC(=S)N2CCN(c3cccc(C(F)(F)F)c3)CC2)cc1 returned H5N1 CPE 1.0.
Cc1csc(NC(=O)CCNS(=O)(=O)c2ccc3c(c2)c(=O)n(C)c(=O)n3C)n1 was read as H5N1 CPE 0.2.
CCOC(=O)c1sc(C)c2c1NC(c1ccc(Cl)cc1)NC2=O (stereo unspecified) was read as H5N1 CPE inactive.
Screening COc1ccc(N2C(=O)CC(NCc3cccs3)C2=O)cc1 (stereo unspecified) returned H5N1 CPE inactive.
CN(CCCNC(=O)c1cccc(N2CCCC2=O)c1)c1ccccc1 was read as H5N1 CPE 0.5.
For C=CCn1c(-c2ccc(S(=O)(=O)N3CCOCC3)cc2)csc1=Nc1ccccc1 the results were H5N1 CPE 1.9.
`COCCNC(C)C(=O)C12CC3CC(CC(C3)C1)C2` (stereo unspecified) gave H5N1 CPE inactive.
Screening CCOC(=O)c1c(C)oc2c1c(C(c1ccccc1)N1CCOCC1)c(O)c1ccccc12 (stereo unspecified) returned H5N1 CPE inactive.
`COc1ccc(Cn2c(N)c(C#N)c3nc4ccccc4nc32)cc1` gave H5N1 CPE inactive.
O=C(O)c1ccc(S(=O)(=O)c2ccc3c(c2)C(=O)N(CC2CCCO2)C3=O)cc1 (stereo unspecified) was read as H5N1 CPE inactive.
`Cc1ccc(NCc2nnc(SCC(=O)N3CCc4ccccc43)n2C)cc1` gave H5N1 CPE 0.5.
For COc1ccc(OC)c(C2=NOC(C(=O)Nc3ccccc3SC)C2)c1 (stereo unspecified) the results were H5N1 CPE inactive.
`COc1ccc(CNc2nc(NCc3ccc(OC)cc3)n(C(=O)c3ccccc3[N+](=O)[O-])n2)cc1` gave H5N1 CPE 0.5.
Cc1ccc2c(c1)cc1c(=O)[nH]ncn12 was read as H5N1 CPE inactive.
CCOc1ccc(NC2=NC(C(=O)NCc3ccccc3)CC(=O)N2)cc1 (stereo unspecified) was read as H5N1 CPE inactive.
`Cc1cccc(NS(=O)(=O)c2c(C)n[nH]c2C)c1` gave H5N1 CPE 0.1.
Screening O=c1c2ccccc2nc2n1C(CSCc1ccc(Cl)cc1Cl)CS2 (stereo unspecified) returned H5N1 CPE 1.0.
For C=CCC1(O)CC(c2ccco2)NC(c2ccco2)C1CCC (stereo unspecified) the results were H5N1 CPE inactive.
For Cc1ccnc(NC(=O)CSc2cc(=O)n(C)c3ccccc23)c1 the results were H5N1 CPE 5.4.
For CCOc1cc2c3c(c1)C1(OCCO1)C(=O)N3C(C)(C)CC2C (stereo unspecified) the results were H5N1 CPE 1.1.
`COc1ccc(N2CC(C(=O)OCC(=O)c3cccc(OC)c3)CC2=O)cc1` (stereo unspecified) gave H5N1 CPE inactive.
CCOC(=O)c1ccc(N2CC(O)=C(c3nc4ccccc4c(=O)[nH]3)C2=N)cc1 was read as H5N1 CPE inactive.
For COc1ccc(C(c2nnnn2Cc2ccc(F)cc2)N2CCN(c3ccccc3)CC2)cc1 (stereo unspecified) the results were H5N1 CPE 1.2.
CCOc1ccccc1NC(=O)Nc1c(C)n(-c2ccccc2)c(=O)n1C was read as H5N1 CPE inactive.
CCCC(=O)NC(C)c1nc2ccccc2n1CC (stereo unspecified) was read as H5N1 CPE 0.9.
Screening CC(C)c1ccc(-c2nn(-c3ccccc3)cc2C2C(C#N)=C(N)OC3=C2C(=O)CC(C)(C)C3)cc1 (stereo unspecified) returned H5N1 CPE 0.7.
Screening CCC(=O)NC(=Nc1nc2ccccc2s1)NC(=O)CC returned H5N1 CPE 0.1.
Screening CCOc1cc(NC(=S)NCCCN2CCOCC2)c(OCC)cc1NC(=O)CC(C)C returned H5N1 CPE inactive.
Screening Cn1c(C(=O)OCC(=O)NCc2cccs2)cc2sccc21 returned H5N1 CPE 0.3.
For CCOc1cc(CNc2ccc3c(c2)OCCO3)cc(Br)c1OCC(N)=O the results were H5N1 CPE 0.4.
`Cc1ccc2c(c1)cc(CN(Cc1cccnc1)C(=O)NCc1ccccc1)c1nnnn12` gave H5N1 CPE 1.6.
Screening Cc1ccc(OC(=O)c2ccc(Br)o2)cc1 returned H5N1 CPE inactive.
`Cc1cc(C(=O)CCC(=O)N2CCN(S(=O)(=O)c3cccs3)CC2)c(C)s1` gave H5N1 CPE inactive.
CCC(CC)C(=O)Nc1c2c(nn1-c1ccc(OC)cc1)CS(=O)C2 (stereo unspecified) was read as H5N1 CPE 0.5.
CC1C=CCC2C(=O)N(c3cccc(C(=O)N4CCCCCC4)c3)C(=O)C12 (stereo unspecified) was read as H5N1 CPE 0.2.
Cc1ccc(SC(C)C(=O)N2CCCC2)cc1 (stereo unspecified) was read as H5N1 CPE 0.1.

Part of the list above in order of SMILES length, rising:
Screening Cc1ccc(OC(=O)c2ccc(Br)o2)cc1 returned H5N1 CPE inactive.
Screening CCC(=O)NC(=Nc1nc2ccccc2s1)NC(=O)CC returned H5N1 CPE 0.1.
CCOc1ccccc1NC(=O)Nc1c(C)n(-c2ccccc2)c(=O)n1C was read as H5N1 CPE inactive.

Next section:
For CCn1c(=O)cc(SCC(=O)NCCCN2CCN(c3ccc(F)cc3)CC2)c2ccccc21 the results were H5N1 CPE inactive.
COC(=O)CSc1cc(C)nc(SC)n1 was read as H5N1 CPE 0.9.
For C=CCN1C(=O)c2ccccc2Sc2ccc(C(=O)N3CCC4(CC3)OCCO4)cc21 the results were H5N1 CPE 1.2.
For CCCOP(=O)(c1ccc(N(C)C)cc1)C(O)c1cc(OC)c(OC)c(OC)c1 (stereo unspecified) the results were H5N1 CPE 0.8.
Screening Cc1ccc(C(CC(=O)N2CCOCC2)c2ccco2)cc1 (stereo unspecified) returned H5N1 CPE 0.2.
`COc1cc(C2NC(=O)NC(C)=C2C(=O)OCC2CCCO2)ccc1O` (stereo unspecified) gave H5N1 CPE 1.4.
Cc1cc(NC(=O)COC(=O)CSc2nc3cc(Cl)ccc3n2Cc2ccccc2)no1 was read as H5N1 CPE 0.3.
O=S(=O)(N1CCCCC1)N1CCNCC1 was read as H5N1 CPE 0.8.
`O=C(Nc1cccc(F)c1)C1CCN(C(=O)Cc2ccccc2)CC1` gave H5N1 CPE inactive.
CC(C)Oc1cc(O)c2c(=O)c(-c3ccc(O)cc3)coc2c1 was read as H5N1 CPE inactive.
For COCCNC(=O)NC(=O)COC(=O)C12CC3CC(CC(NC(C)=O)(C3)C1)C2 the results were H5N1 CPE 0.6.
`Cc1c(NC(=O)C2CC=CCC2C(=O)O)c(=O)n(-c2ccccc2)n1C` (stereo unspecified) gave H5N1 CPE 0.4.
`Cc1ccc(-n2c(SCc3cn4ccsc4n3)nc3ccccc3c2=O)cc1` gave H5N1 CPE 0.8.
O=C1O/C(=C\C(=O)N2CCOCC2)c2ccccc21 was read as H5N1 CPE inactive.
For CCCCC1(Cc2ccc([N+](=O)[O-])cc2)C(=O)N(c2ccccc2)N(c2ccccc2)C1=O the results were H5N1 CPE 6.9.
`CCCC(c1nnnn1CCOC)N1CCN(C(=O)c2ccco2)CC1` (stereo unspecified) gave H5N1 CPE 1.4.
`Nc1nnc(SCc2ccc(F)cc2Cl)s1` gave H5N1 CPE inactive.
Screening O=c1c2cc3ccccc3n2cnn1Cc1ccccc1F returned H5N1 CPE 2.0.
For COC(=O)c1cccc(S(=O)(=O)N2CCN(c3nc4ccccc4s3)CC2)c1 the results were H5N1 CPE inactive.
Cc1cc(C)n2ncc(C(=O)NCc3ccc(Cl)cc3)c2n1 was read as H5N1 CPE 0.5.
`CCOC(=O)c1ccc(NC(=O)CCS(=O)(=O)c2ccc(Br)s2)cc1` gave H5N1 CPE inactive.
Cc1cc(C)c(NC(=O)CN2CCN(C)CC2)c(C)c1 was read as H5N1 CPE inactive.
CCc1ccc(C(=O)c2oc3nc(C)cc(C)c3c2N)cc1 was read as H5N1 CPE inactive.
Screening Cc1ccc(NC(=O)CN2C(=O)NC3(CCC(C)CC3)C2=O)c(Cl)c1 (stereo unspecified) returned H5N1 CPE inactive.
Screening Cc1cccc(C)c1NC(=O)CSc1nnc(-c2ccoc2C)n1C returned H5N1 CPE 0.4.
Cc1ccc(NC(=O)c2ccc(F)c(S(=O)(=O)N3CCOCC3)c2)cc1F was read as H5N1 CPE 2.1.
For CCCCOc1ccc(C(=O)N2CC(C)OC(C)C2)cc1 (stereo unspecified) the results were H5N1 CPE 0.4.
For Cc1cc(F)ccc1NCc1cccnc1 the results were H5N1 CPE inactive.
O=C(c1ccc(-c2ccccc2)cc1)c1ccccc1C(=O)N1CCOCC1 was read as H5N1 CPE inactive.
For Cc1cccc(-c2c3c(=O)n(C)c(=O)n(C)c3cn2C(C)C)c1 the results were H5N1 CPE 1.1.

Fetched by compound from the list above (six):
Cc1ccc(NC(=O)c2ccc(F)c(S(=O)(=O)N3CCOCC3)c2)cc1F was read as H5N1 CPE 2.1.
O=C(c1ccc(-c2ccccc2)cc1)c1ccccc1C(=O)N1CCOCC1 was read as H5N1 CPE inactive.
Screening Cc1ccc(NC(=O)CN2C(=O)NC3(CCC(C)CC3)C2=O)c(Cl)c1 (stereo unspecified) returned H5N1 CPE inactive.
For COC(=O)c1cccc(S(=O)(=O)N2CCN(c3nc4ccccc4s3)CC2)c1 the results were H5N1 CPE inactive.
Cc1cc(C)n2ncc(C(=O)NCc3ccc(Cl)cc3)c2n1 was read as H5N1 CPE 0.5.
`Nc1nnc(SCc2ccc(F)cc2Cl)s1` gave H5N1 CPE inactive.

Later entries
COCCNC(=O)c1sc2nc(-c3ccccc3)cn2c1C was read as H5N1 CPE 0.3.
For CCOC(=O)N(C)c1ccc(C(O)(C(F)(F)F)C(F)(F)F)cc1 the results were H5N1 CPE inactive.
`Cc1ccc2c(c1)c1c3n2CCN(C(=O)C2CC2)C3CCC1` (stereo unspecified) gave H5N1 CPE 0.4.
Screening COc1ccc(CN(Cc2ccco2)S(=O)(=O)c2ccc(S(=O)(=O)N3CCCC3)cc2)cc1 returned H5N1 CPE inactive.
CC(NC(=O)CNC(=O)OCc1ccccc1)C(=O)N1CC(O)CC1C(=O)OCc1ccccc1 (stereo unspecified) was read as H5N1 CPE 0.9.
`O=C(Nc1nnc(CCN2CCCCC2)s1)C1CCCCC1` gave H5N1 CPE 0.2.
Screening O=C(NCc1ccco1)c1cc(-c2cccc(Cl)c2)on1 returned H5N1 CPE 2.9.
For CC(C)C(=O)Nc1nnc(CCN2CCOCC2)s1 the results were H5N1 CPE inactive.
O=C(CSc1ncnc2c1oc1ccccc12)OCc1ccccc1 was read as H5N1 CPE inactive.
